# Source: PubChem BioAssay (several laboratories)
# Beta2AR agonist: beta2AR agonists driving receptor internalization, primary screen, cell-based, FAP fluorogen, flow cytometry; Beta-2 adrenergic receptor (Homo sapiens), P07550; Am2.2-beta2AR cells; reference of the scale not given here; response, % (concentration not given with the values); hit rate 0.43% among 340,000; AID 504454, 2011;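 active = response above a set limit, near 3 SD of response in nonfluorescent compounds, cut at about 42% in these data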;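 also: stock transfer was 100 nL into about 11 µL; a reference agonist was the positive control; negative values mostly stem from fluorescent compounds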
# Target sequence (P07550 whole entry, looked up): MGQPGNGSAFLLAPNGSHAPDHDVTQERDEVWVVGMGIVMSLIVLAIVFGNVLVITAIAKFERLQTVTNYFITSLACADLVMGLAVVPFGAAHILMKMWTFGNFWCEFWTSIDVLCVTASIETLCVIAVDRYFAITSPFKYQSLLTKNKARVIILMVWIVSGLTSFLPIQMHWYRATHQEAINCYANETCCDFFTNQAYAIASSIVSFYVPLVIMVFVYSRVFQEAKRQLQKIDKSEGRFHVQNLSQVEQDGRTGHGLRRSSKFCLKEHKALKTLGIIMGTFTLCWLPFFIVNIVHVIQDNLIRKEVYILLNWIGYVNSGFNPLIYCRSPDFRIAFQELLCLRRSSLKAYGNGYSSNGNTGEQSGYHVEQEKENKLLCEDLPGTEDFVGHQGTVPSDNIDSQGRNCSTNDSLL
# UCH37 DUB inh: inhibitors of human UCH37 deubiquitinase, primary screen, biochemical, Ub-AMC cleavage, fluorescence; hit rate 0.33% among 330,000; AID 588478, 2011; inhibition, % (test concentration not listed); purified proteasome/UCH37;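 active = mean of two replicates above 20%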;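 also: 0% = compound-free wells with enzyme and 100% = wells lacking proteasome; stock transfer was 100 nL into about 20 µL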
# Target sequence (Q9Y5K5 whole entry, looked up): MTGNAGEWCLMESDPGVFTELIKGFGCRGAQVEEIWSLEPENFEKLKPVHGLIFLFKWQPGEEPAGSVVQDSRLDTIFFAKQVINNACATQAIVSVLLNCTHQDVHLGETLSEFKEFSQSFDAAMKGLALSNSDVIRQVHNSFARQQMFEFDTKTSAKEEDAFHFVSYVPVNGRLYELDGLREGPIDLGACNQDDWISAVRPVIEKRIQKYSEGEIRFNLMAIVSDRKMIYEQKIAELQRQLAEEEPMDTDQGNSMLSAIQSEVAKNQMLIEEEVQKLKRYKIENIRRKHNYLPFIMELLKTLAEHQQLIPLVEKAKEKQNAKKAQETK
#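 Material: human UCH37 enzyme supplied as purified proteasome complex. Measure: % inhibition of Ub-AMC cleavage fluorescence. Medium: pH 7.4 Tris-HCl (50 mM) with ovalbumin, ATP-MgCl2, DTT. Times: 30 min preincubation with enzyme, 25 min cleavage at room temperature. Detection: AMC fluorescence intensity at 355/460 nm.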
# Beta apoptosis: inhibitors of cytokine-induced beta cell apoptosis, primary screen, luminescence; INS-1E cytokine-induced death, ATP luminescence, 48 h; percent of positive-control rescue, neutral wells zero; protection from apoptosis, % (no concentration beside the values); hit rate 0.8% among 300,000;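 active = all replicates at 75% or more, or half of them and the mean; inconclusive = half reach 75% but not the mean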;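 also: 0% = cytokine-treated negative control wells and 100% = positive control rescue; higher means more ATP so stronger rescue from cytokine killing; wells of about 40 µL received 100 nL stock; the first replicate is given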
# RanGTP-Imp inh: inhibitors of RanGTP-importin-beta interaction, primary screen, biochemical, FRET, CFP-Ran, YFP-importin-beta, homogeneous; AID 2216, 2009; Ran GTPase (GTP-bound) - importin-beta complex; hit rate 1.1% among 300,000; inhibition, % (test concentration not listed); cell-free CFP-Ran/YFP-importin-beta FRET ratio;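 active = most replicates above 15%; inconclusive = exactly half above 15%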;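 also: 0% = DMSO wells and 100% = Ran loaded with GDP instead of GTP; wells of about 40 µL received 100 nL stock; the first replicate is given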
# Bfl-1 A1 inh: caspase 3/7 activation in MEF A1-2A-BIM cells, primary screen, A1 inhibitor project, cell-based, luminescence, HTS; Caspase-Glo 3/7 luminescence, 3 h; percent of clofoctol response, vehicle zero; caspase activation, % (test concentration not listed); hit rate 0.066% among 330,000;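 active = over half of replicate activation scores above 10%, or exactly half above 10 with the replicate mean above 10; inconclusive = replicate mean below 10 yet half the replicates above 10; inactive = over half of replicates below 10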;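 also: wells of about 30 µL received 50 nL stock; many hits fall short of the cut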
# LANA-H2A inh: blockers of LANA interaction with H2A/H2B – biochemical, FP readout, HTS, primary screen | hit rate 0.6% among 320,000 | cell-free LANA-H2A/H2B peptide, fluorescence polarization | inhibition, % (concentration not given with the values) | Protein LANA1 (Human herpesvirus 8 type P (isolate GK18)), Q9QR71; in the data active = inhibition mostly above about 10%, no sharp cut-off; inactive = mostly below about 6.7%;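 also: stock transfer was 7.5 nL into about 10 µL; 0% = median of vehicle wells and 100% = median of positive control wells; one replicate is shown; the record names a cut of 25% in any replicate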
# Calb FLC: C. albicans growth inhibition with fluconazole, primary screen, CaCi-2 strain, Alamar Blue fluorescence; C. albicans CaCi-2 (fluconazole-resistant clinical isolate) + fluconazole, 48 h; growth inhibition, % (test concentration not listed); hit rate 0.57% among 300,000;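 active = most replicates above 75%; inconclusive = exactly half above 75%; inactive = most below 75%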;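 also: all wells also contain fluconazole at 8 µg/ml as a sub-toxic cotreatment; 0% = median of DMSO wells and 100% = median of geldanamycin control wells; wells of about 8 µL received 7.5 nL stock; the first replicate is given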
# T cruzi repl: inhibitors of intracellular T. cruzi growth, primary screen, luminescence, NIH3T3 host cells; T. cruzi beta-gal in NIH3T3, 90 h; inhibition, % (concentration not given with the values); hit rate 1.4% among 300,000;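 active = mean inhibition across valid replicates above about 55%, limit read from the data; inconclusive = mean below that limit but half or more replicates reach it; inactive = mean below it, under half of replicates reach it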;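 also: signal also drops with host cell toxicity which is not excluded here; 0% = plate median of DMSO wells and 100% = zero luminescence signal; higher percent means less beta-gal luminescence so fewer parasites; stock transfer was 50 nL into about 50 µL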
# An asterisk follows results filed as active; u = inconclusive; x = not tested or not shown.
SMILES,Beta2AR agonist,UCH37 DUB inh,Beta apoptosis,RanGTP-Imp inh,Bfl-1 A1 inh,LANA-H2A inh,Calb FLC,T cruzi repl
Cc1cc(NC(=O)/C=C/c2ccc(Br)cc2)no1,-3,-0.6,1,-3.8,-1.3,1.0,7,-72
Cc1ccc2c(c1)cc(CN(Cc1ccc3c(c1)OCO3)C(=O)c1cnccn1)c1nnnn12,-11,3.1,4,1.9,-0.3,0.9,-1,19
COC(=O)c1ccc(C(=O)OC)c(NC(=O)C(C)(C)C)c1,4,-19,-2,0.0,-0.4,-5.8,-4,2
Cc1ccc2[nH]cc(S(=O)(=O)c3ccc(F)cc3)c(=O)c2c1,-1,1.0,3,1.0,-0.9,4.0,-4,-2
Cc1cccc(N(C(=O)Cn2nnc3ccccc32)C(C(=O)NC(C)(C)C)c2ccsc2)c1C (stereo unspecified),7,1.2,4,0.2,0.3,4.0,5,6
Cc1cc(Cn2nc(C(=O)NCC3CC3)cc2-c2ccccc2)on1,-10,1.7,-2,-1.1,1.0,-1.2,14,9
CCNC(=O)COC(=O)CCNC(=O)c1cccc(C)c1,-8,1.9,-6,-0.2,0.6,-2.1,18,9
Cn1c(=O)[nH]c(=O)c2c1nc(Br)n2CCCc1ccccc1,x,0.1,x,-0.9,x,x,-3,0
CCCN(CC1CC1)S(=O)(=O)c1ccc(-n2cnnn2)c(OC)c1,-5,0.3,4,5.5,-0.2,-7.2,10,1
CCCC(=O)Nc1nc2ccc(NC(=O)c3c(F)c(F)c(OC)c(F)c3F)cc2s1,15,4.1,15,2.8,0.9,0.3,3,33
CC[C@H](C)[C@@H]1NC(=O)c2cc([N+](=O)[O-])cc(F)c2NCCCC[C@@H](C(N)=O)NC(=O)[C@H](CC(N)=O)NC1=O,4,2.6,-7,x,2.0,-2.6,x,x
N#Cc1c(/N=C/N2CCCC2)oc(-c2ccccc2)c1-c1ccccc1,-2,x,12,4.4,0.5,-1.3,29,37
CCOC(=O)C(Cc1ccccc1)c1ccnc2ncnn12 (stereo unspecified),0,1.7,-2,-1.4,-0.6,-5.2,-1,-4
Cc1cc(C)n2nc(SCC(=O)N/N=C/c3ccccc3F)nc2n1,-16,x,-3,1.1,-0.5,-0.1,-9,0
Cc1c(C(=O)N2CCC3(CC2)CC(=O)c2ccccc2O3)cccc1[N+](=O)[O-],4,x,-5,4.7,-0.3,-0.2,-5,-11
Cc1cnc([N+](=O)[O-])n1CCOC(=O)NC(=O)c1ccc(F)cc1,2,-0.9,-2,1.6,0.2,-1.9,6,-17
O=C(CCSc1ccc(Cl)cc1)N1CCN(S(=O)(=O)c2ccccc2)CC1,10,2.5,-18,x,0.4,4.6,x,x
CC1(C)CC(=O)C(Sc2ccccc2[N+](=O)[O-])=C(O)C1,-6,2.9,-6,u,-0.8,x,2,-13
CCCC1=NN(C(=O)C(=O)Nc2ccc(Br)cc2)C(O)(C(F)(F)F)C1 (stereo unspecified),2,3.9,14,-3.0,1.0,11,3,0
COC(=O)CCC(=O)Nc1cccc(Br)c1,0,4.2,-1,0.6,0.0,7.1,7,10
Cc1ccc(F)c(CNC(=O)C2CCC(=O)N(CCN3CCOCC3)C2)c1F (stereo unspecified),0,1.1,-7,1.6,-0.1,2.1,-1,-11
O=C(COc1ccc2c3c(c(=O)oc2c1)CCC3)Nc1ccc(CCO)cc1,3,-12,-1,6.7,0.7,3.0,-2,-12
CCOC(=O)/C(C#N)=C1/C=CN(c2ccc(C)cc2)C=N1,0,11,1,-1.6,0.1,2.6,23,10
CCS(=O)(=O)N1CCCC(C(=O)NCCCN2CCCC2=O)C1 (stereo unspecified),2,-2.3,-6,x,0.2,-4.2,x,x
C=CCn1c(SCc2ccc(Cl)c(Cl)c2)nnc1C(CO)NC(=O)c1ccc(OC)cc1 (stereo unspecified),-5,3.8,-25,1.5,-0.1,4.3,-2,9

# Next part.
SMILES,Beta2AR agonist,UCH37 DUB inh,Beta apoptosis,RanGTP-Imp inh,Bfl-1 A1 inh,LANA-H2A inh,Calb FLC,T cruzi repl
COc1ccc2c(c1)CCC1C2=NN(/C(C)=C\C(C)=O)C1c1ccc(F)cc1 (stereo unspecified),1,-0.9,0,5.4,-1.5,3.3,19,4
O=C1CC(N2CCN(Cc3ccc4c(c3)OCO4)CC2)C(=O)N1Cc1ccc(N2CCCC2=O)cc1 (stereo unspecified),0,4.2,2,1.2,-2.7,-4.1,-23,11
COc1ccc(C(=O)N/N=C/c2ccc(OC(=O)c3cccc4ccccc34)c([N+](=O)[O-])c2)cc1,7,x,6,-4.2,-0.7,9.6,-4,-9
COCCOC(=O)N/C=C\c1nc2ccccc2c(=O)[nH]1,10,4.6,0,6.4,-0.4,-1.7,21,-9
CN1CCN(S(=O)(=O)c2ccc(N(C)Cc3cccc(F)c3)nc2)CC1,-4,-3.5,1,x,0.3,4.8,x,x
COc1ccc(CCN2CC(O)=C(c3nc4ccccc4c(=O)[nH]3)C2=N)cc1OC,7,-13,0,u,-0.5,-1.6,-4,-1
Cc1cc(C)c2nc(N(CCCN(C)C)C(=O)c3ccc(S(=O)(=O)N4CCCCCC4)cc3)sc2c1,22,-2.2,x,-0.2,0.0,1.8,3,54
N#CC(c1ccccc1O)N1N=C(c2ccccc2)CC1c1ccccc1 (stereo unspecified),11,2.7,0,-0.5,-1.0,2.8,-14,21
COc1ccc(-c2cc(C(=O)Nc3ccc(C)c(N)c3)c3ccccc3n2)cc1,10,4.7,3,2.1,-0.3,-2.3,-16,3
COc1cc(C(=O)NC2CCN(Cc3nnnn3Cc3cccs3)CC2)cc(OC)c1OC,-6,2.0,2,4.1,0.1,-1.4,6,-9
Cc1ccc(S(=O)(=O)/N=C(/Nc2ccc([N+](=O)[O-])cc2[N+](=O)[O-])c2ccccc2)cc1,5,x,9,x,-1.7,-2.1,x,x
N#Cc1sc2nc3c(c(-c4cccnc4)c2c1N)CCC3,-4,2.1,3,5.6,0.1,1.3,8,-13
Cc1onc(-c2c(F)cccc2Cl)c1C(=O)NC1CCSC1=O (stereo unspecified),-11,0.5,-3,u,0.0,1.0,-3,-2
Cc1cc(C)n(-c2nc(SCC(=O)O)c3c4c(sc3n2)COC(C)(C)C4)n1,-3,-0.9,9,9.9,0.9,-1.6,20,31
Cc1nn(C)c(C)c1CNC(=O)Nc1ccc(Cl)cc1,0,1.9,-1,1.5,-0.4,0.4,-9,-3
COc1ccc(CCNC(=O)C2CCN(S(=O)(=O)c3ccc(OC)c(OC)c3)CC2)cc1,-1,-2.9,-3,-2.6,-0.6,-1.4,-9,-2
CN(CCc1ccccn1)C(=O)CCC1CCCN(C(=O)c2n[nH]c3c2CCCC3)C1 (stereo unspecified),-7,2.6,-8,1.0,0.0,-1.5,-13,-4
O=C(NC1C2CC3CC(C2)CC1C3)c1ccc(Br)o1 (stereo unspecified),-5,1.5,-2,0.2,-0.1,-0.7,8,3
CC(=O)Nc1ccc(SCC(=O)N2CCN(S(=O)(=O)c3ccccc3)CC2)cc1,-2,0.4,2,-0.4,0.0,4.7,-8,0
Clc1cccc(-c2nc3nc4ccccc4nc3n2Cc2ccco2)c1,4,-24,2,3.7,-0.1,-44,6,19
Cc1ccc(OCCN2CCN(c3nc(NCc4ccco4)c4ccccc4n3)CC2)cc1,1,-52,4,2.7,0.5,-3.6,13,70*
CCN1CCN(C(c2cccs2)C(C)NC(=O)c2ccccc2F)CC1 (stereo unspecified),2,0.3,-6,-2.0,-0.8,-2.4,-15,-15
COC(=O)[C@@H]1[C@@H](C)N(Cc2ccccc2)C(=O)N[C@H]1c1ccccc1,2,-0.6,-5,0.7,0.3,-1.8,2,-3
Cc1cccc(N(CC(=O)NC2CCCC2)C(=O)c2c(C)noc2C)c1,3,1.1,8,1.7,-0.2,2.3,9,3
O=[N+]([O-])c1cccc(S(=O)(=O)N/N=C/c2ccc(O)cc2)c1,-1,x,-5,-2.2,0.1,-0.6,-6,-10

# The listing continues.
SMILES,Beta2AR agonist,UCH37 DUB inh,Beta apoptosis,RanGTP-Imp inh,Bfl-1 A1 inh,LANA-H2A inh,Calb FLC,T cruzi repl
O=C(CCC(=O)Nc1ccccc1Cl)N/N=C1\CCCc2ccccc21,-3,x,x,-1.1,0.7,0.6,-4,2
c1ccc(CCn2c3ccccc3c3nnc(SCc4ccc5nonc5c4)nc32)cc1,-15,1.4,17,-2.1,0.4,-3.7,-15,49
CC(=O)c1cccc(-c2csc(N3CCC(C(N)=O)CC3)n2)c1,2,-2.9,-3,x,-0.5,-1.8,x,x
CC(=O)c1cccc(NC(=O)COc2ccc(S(=O)(=O)N3CCCCC3)cc2)c1,2,3.8,-3,4.6,-0.1,0.5,-4,4
CSc1ccccc1-n1nnnc1SCc1ccccc1,1,2.8,-16,-1.5,-0.8,1.6,16,6
O=S(=O)(N/N=C\C=C\c1ccccc1)c1ccccc1,7,x,-7,0.9,0.3,0.7,-24,-16
CCNc1nc(=S)nc(NC(C)C)[nH]1,-1,4.3,-4,u,-0.4,8.4,u,7

# An excerpt of these results, with tabs.
Structure	Beta2AR agonist	UCH37 DUB inh	Beta apoptosis	RanGTP-Imp inh	Bfl-1 A1 inh	LANA-H2A inh	Calb FLC	T cruzi repl
COC(=O)[C@@H]1[C@@H](C)N(Cc2ccccc2)C(=O)N[C@H]1c1ccccc1	2	-0.6	-5	0.7	0.3	-1.8	2	-3
Cc1cccc(N(CC(=O)NC2CCCC2)C(=O)c2c(C)noc2C)c1	3	1.1	8	1.7	-0.2	2.3	9	3
O=[N+]([O-])c1cccc(S(=O)(=O)N/N=C/c2ccc(O)cc2)c1	-1	x	-5	-2.2	0.1	-0.6	-6	-10
O=C(CCC(=O)Nc1ccccc1Cl)N/N=C1\CCCc2ccccc21	-3	x	x	-1.1	0.7	0.6	-4	2
c1ccc(CCn2c3ccccc3c3nnc(SCc4ccc5nonc5c4)nc32)cc1	-15	1.4	17	-2.1	0.4	-3.7	-15	49
CC(=O)c1cccc(-c2csc(N3CCC(C(N)=O)CC3)n2)c1	2	-2.9	-3	x	-0.5	-1.8	x	x
CC(=O)c1cccc(NC(=O)COc2ccc(S(=O)(=O)N3CCCCC3)cc2)c1	2	3.8	-3	4.6	-0.1	0.5	-4	4
CSc1ccccc1-n1nnnc1SCc1ccccc1	1	2.8	-16	-1.5	-0.8	1.6	16	6
O=S(=O)(N/N=C\C=C\c1ccccc1)c1ccccc1	7	x	-7	0.9	0.3	0.7	-24	-16
CCNc1nc(=S)nc(NC(C)C)[nH]1	-1	4.3	-4	u	-0.4	8.4	u	7
